Screens as filed in PubChem BioAssay.
AID504770: growth inhibitors of E. coli YBA685 in a screen for V. cholerae RctB (chromosome II replication) inhibitors; E. coli YBA685 rctB-dependent plasmid, OD600 growth, 3 h; active compounds read low; z-score (no concentration beside the values); hit rate 0.27% among 130,000; AID 504770;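 active = z-score under -2 on both plates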;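 also: wells of about 30 µL received 100 nL stock; score is relative to mean and SD of the test wells; the first replicate is given; strong numbers were not always called active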
CapD inh: blocks the Bacillus anthracis CapD enzyme; hit rate 0.23% among 140,000; purified CapD enzyme, fluorescence intensity read-out; active compounds read low; some hits fall short of the stated cut; z-score (test concentration not listed);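 active = z-score under -4 in either of two replicates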;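 also: stock transfer was 100 nL into about 40 µL; score is relative to mean and spread of the plate; one replicate is shown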
* marks the source's active call; other numbers are inactive results; nt = no result given. Not all compounds are listed (hit frequency here may not be typical).

Each structure is followed by: AID504770	CapD inh
CCOc1cccc2cc(C(N)=O)c(=NCc3ccccc3)oc12
 : -1.2	-0.51
Cc1ccc(-c2nn(-c3cc(N4CCN(CCO)CC4)ccc3[N+](=O)[O-])c(=O)c3ccccc23)cc1C
 : nt	-0.93
NC(=O)C1(N2CCCCC2)CCN(C(=O)c2ccc3c(=O)n(CCC4=CCCCC4)c(=S)[nH]c3c2)CC1
 : nt	-0.16
Cn1cc(/C(N)=N/O)c(=O)n(Cc2ccccc2)c1=O
 : -0.85	-0.23
COc1ccc(Oc2c(C(F)(F)F)oc3cc(OC(=O)c4cncc(Br)c4)ccc3c2=O)cc1
 : nt	-0.35
Cc1ccc(-n2c(C)nc3cc(C(=O)O)ccc32)c(C)c1
 : 0.1	-0.07
CC(=O)N1CC=C2C(C#N)=C(N)C(C#N)(C#N)[C@H](c3ccc(F)cc3F)[C@H]2C1
 : 0.25	8.6
O=C(/C=C/c1ccc(Cl)cc1)Nc1nccs1
 : 0.5	2.3
CC(=O)Nc1ccc(S(=O)(=O)N2CCCC2c2ccc3c(c2)OCCCO3)cc1 (stereo not given)
 : 1.4	nt
C=CCn1c(/N=C/c2ccc(OC)cc2)nc2ccccc21
 : -1.7	-3.7
Oc1ccccc1C1CCCCC1c1ccccc1 (stereo not given)
 : -0.25	0.005
Cc1onc(-c2c(Cl)cccc2Cl)c1C(=O)Oc1noc2ccccc12
 : 0.25	0.55
O=C1NC(=O)NC(=C/C=C/c2ccc(-c3ccc(Cl)cc3Cl)o2)N1
 : 1.4	nt
O=C(Nc1c(C(=O)N2CCOCC2)cnn1-c1ccccc1)c1ccco1
 : -0.35	0.4
CC(Cc1ccccc1)[n+]1cc(N)on1 (stereo not given)
 : 0.1	0.28
Cc1c(Nc2cc(N3CCCCCC3)c3nonc3c2[N+](=O)[O-])c(=O)n(-c2ccccc2)n1C
 : nt	-0.19
CC(=O)Nc1ccc(N=Cc2ccc(OC(=O)c3ccccc3Br)cc2O)cc1
 : 0.05	-0.15
O=C(NCc1cccs1)c1cccnc1C(=O)O
 : 1.2	-0.64
Cc1cccc(Cn2c(=O)[nH]c3ccccc32)c1
 : -0.6	-0.35
CSc1nc(N)nc(N(C)C)n1
 : 0.65	-0.42
CC(=O)OC12CC3CC(C1)CC(C(=O)O)(C3)C2
 : -0.55	-0.025
COc1ccc(-n2c(-c3cccc(OC)c3)csc2=NCc2cccnc2)cc1
 : 0.75	0.42
O=C(COc1ccc2c(c1)OCO2)NC12CC3CC(CC(C3)C1)C2
 : -0.15	nt
c1csc(-c2csc3nc(CN4CCOCC4)nc(NC4CC4)c23)c1
 : 1.2	nt
Nc1c2c(nc3ccccc13)N(Cc1ccccc1)CC2
 : -1.4	-1
CCc1cc(=O)oc2c(C)c3occ(C)c3cc12
 : 0.35	1.8
CCN1C(=O)/C(=C\c2ccc(OCC(N)=O)c(OC)c2)SC1=S
 : -0.75	-0.94
Cc1c(Cl)cnc(NC(=O)COC(=O)COc2ccc3c4c(c(=O)oc3c2)CCC4)c1Cl
 : 0.75	nt
O=C1CC(c2cccc(C(F)(F)F)c2)c2cc(Br)c3ccccc3c2N1 (stereo not given)
 : nt	-0.15
O=C(OCC(=O)N1CCc2ccccc2C1)c1sc2sccc2c1Cl
 : 0.4	nt

Already shown: four of the compounds above.
Each structure is followed by: AID504770	CapD inh
CCN1C(=O)/C(=C\c2ccc(OCC(N)=O)c(OC)c2)SC1=S
 : -0.75	-0.94
Cc1c(Cl)cnc(NC(=O)COC(=O)COc2ccc3c4c(c(=O)oc3c2)CCC4)c1Cl
 : 0.75	nt
O=C1CC(c2cccc(C(F)(F)F)c2)c2cc(Br)c3ccccc3c2N1 (stereo not given)
 : nt	-0.15
O=C(OCC(=O)N1CCc2ccccc2C1)c1sc2sccc2c1Cl
 : 0.4	nt

Continuation.
Each structure is followed by: AID504770	CapD inh
COc1ccc2cc(C(=O)Nc3ccccc3)sc(=O)c2c1OC
 : 1.7	-0.16
COc1cc(OC)cc(C(=O)NNC(=O)c2ccc3nsnc3c2)c1
 : nt	0.36
COc1ccc(COC(=O)C2=C(C)NC3=C(C(=O)CCC3)C2c2coc3ccccc3c2=O)cc1 (stereo not given)
 : nt	-0.23
O=C(NCC1CCCO1)c1csc2c1CCCC2 (stereo not given)
 : -0.2	6.4
CC1CCOC2(CCC(C(C)(C)C)CC2)O1 (stereo not given)
 : 1.4	-0.11
CNc1ccc(OC(F)F)cc1C(=O)c1ccccc1
 : 0.4	-0.41
NC(=S)c1cccs1
 : -0.25	nt
CCOc1ccc2c(c1)s/c(=N\C(=S)NC(=O)CN1C(=O)CCC1=O)n2C
 : -0.45	nt
CCOCCOC(=O)C1=C(C)NC2=C(C(=O)CC(c3cccs3)C2)C1c1cc(OCC)c(O)c([N+](=O)[O-])c1 (stereo not given)
 : nt	-0.41
CN1c2ccccc2C(=O)/C(=N\Nc2ccccc2Cl)S1(=O)=O
 : -0.1	0.3
COc1cc(OC)cc(C(=O)NCCc2cc3ccc(C)c(C)c3[nH]c2=O)c1
 : -0.5	4.7
Cc1ccccc1NS(=O)(=O)c1ccc(-n2cnnn2)cc1
 : -0.15	-0.49
CC(=O)N1CCCN(S(=O)(=O)c2ccc3c(c2)CN(C(=O)C(F)(F)F)CC3)CC1
 : nt	0.56
CC(=O)Nc1ccc(NC(=O)[C@@H]2CCCC[C@@H]2C(=O)O)cc1
 : 0.15	-0.08
COc1ccc(-c2cc(C(F)(F)F)n3nc(C(=O)NCCc4c[nH]c5ccccc45)cc3n2)cc1
 : nt	0.56

2 entries drawn at random from those above:
Each structure is followed by: AID504770	CapD inh
COc1cc(OC)cc(C(=O)NCCc2cc3ccc(C)c(C)c3[nH]c2=O)c1
 : -0.5	4.7
CCOCCOC(=O)C1=C(C)NC2=C(C(=O)CC(c3cccs3)C2)C1c1cc(OCC)c(O)c([N+](=O)[O-])c1 (stereo not given)
 : nt	-0.41

More results follow:
Each structure is followed by: AID504770	CapD inh
COC(=O)N/N=C/c1cc(C)n(-c2ccccc2)c1C
 : 0.15	0.01
COc1ccc(C(=O)c2oc3ccccc3c2N)cc1
 : -0.6	0.7
O=C(Nc1ccc(C(=O)NCCCN2CCCCC2)cc1)C1=CSCCO1
 : 0.4	-1.1
O=S(=O)(c1c(F)cccc1F)N1CCC(O)(c2ccc(Cl)c(C(F)(F)F)c2)CC1
 : nt	-0.6
Nc1nnc(CCN2C(=O)CSC2=O)s1
 : -0.2	nt
O=C(Nc1ccccc1C(=O)N1CCOCC1)c1ccccc1
 : 1	-0.4
N#Cc1c(-c2cccs2)cc(C2CC2)nc1SCC(N)=O
 : -1	4.2
COc1ccccc1CCn1cc(C#N)c(=O)[nH]c1=O
 : 0.15	1.3
CNC(=S)Sc1ccc(F)cc1F
 : -1.9	-0.12
Cc1c(Cl)cc(F)cc1S(=O)(=O)N1CC=C(c2ccccc2)CC1
 : -0.25	0.07
Cc1ccc(S(=O)(=O)N2CCCC(NC(=O)N3CCCCC3C)C2)cc1 (stereo not given)
 : 1.4	-1.2
NC(=O)C1CCN(C(=O)c2ccc3c(=O)n4c(nc3c2)CCCC4)CC1
 : -0.2	0.23
COC(=O)C1=CN(Cc2ccc(OC)c(OC)c2)C=C(C(=O)OC)C1c1ccc(OC)c(OC)c1
 : nt	39
CCC(C)NC(=O)c1nn(-c2ccc(OC)cc2)c(=O)c2c1c1ccccc1n2C (stereo not given)
 : 0.3	1.1
CCCC1=NN(C(=O)c2ccc(Br)cc2)C(O)(C(F)(F)F)C1 (stereo not given)
 : nt	-0.38
Cc1cc(C(=O)OC(C)C(=O)Nc2cccc(C(F)(F)F)c2)c(C)o1 (stereo not given)
 : -0.85	nt
Cc1ccc(C)c(S(=O)(=O)c2n[nH]n3c2nc(=O)c2sccc23)c1
 : -0.3	61
Cc1ccc2ncnc(NC(CO)C(=O)O)c2c1 (stereo not given)
 : -2.5	1.8
Cc1ccc(Cl)cc1N1CCN(CCCNC(=O)CN2C(=O)CSc3ncccc32)CC1
 : 0.9	-0.43
Cc1sc(/N=C\c2ccccc2Cl)c(C#N)c1C
 : 0.8	0.05
COc1cc(C(c2c(C)n(C)n(-c3ccccc3)c2=O)c2c(C)n(C)n(-c3ccccc3)c2=O)cc(Br)c1O
 : nt	0.015
CC1CCCCN1C(=O)CN1C(=O)c2ccccc2C1=O (stereo not given)
 : 1	0.02
Nc1cc(=O)nc(SCc2ccccc2)n1Cc1ccco1
 : -1.1	0.065
CCOc1ccc(Nc2ccc(S(=O)(=O)N3CCOCC3)cn2)cc1
 : -0.7	nt
Nc1nnnn1/N=C1/C(=O)Nc2ccc(Br)cc21
 : 0.15	-2.5
CCN1C(=O)/C(=N\N2CCN(C)CC2)c2ccccc21
 : 1.1	nt
N#Cc1cc(C#N)c(SCCN2CCOCC2)nc1N
 : -0.55	64
CN(c1ccccc1C(=O)NCCc1ccccc1)S(C)(=O)=O
 : -0.25	nt
O=c1c(Oc2ccccc2)c(C(F)(F)F)oc2c3c(ccc12)OCO3
 : 1.8	nt
CCSc1nc(-c2ccc(Cl)cc2)[nH]c(=O)n1
 : 0.6	-0.32
COC(=O)c1c(C)oc2ccc(N(C(=O)c3ccccc3Cl)S(=O)(=O)c3ccc4ccccc4c3)cc12
 : nt	-0.32
CC(CS(=O)(=O)c1ccc2c(c1)NC(=O)C(C)S2)C(=O)NC1CCCCCC1 (stereo not given)
 : 0.6	0.71
CC(C)(C)c1cc(CN)c(C(=O)O)o1
 : -0.75	nt
Cc1ccc(CC(C#N)Sc2nnc3n2CCCCC3)cc1 (stereo not given)
 : -0.65	nt
CCc1ccnc(NC(=O)CC2(CC(=O)O)CCCCC2)c1
 : 0.35	0.86
CN(Cc1ccccc1)C(=O)CN1C(=O)c2cccc3cccc1c23
 : 0.7	-0.08
COC(=O)COc1ccc(S(=O)(=O)N2CCN(c3ccccc3F)CC2)cc1Cl
 : 2.2	nt
Cc1ccc(S(=O)(=O)NC(=O)n2cc(-c3cnccn3)c(-c3ccc(C(F)(F)F)cc3)n2)cc1
 : nt	0.2
COC(=O)C1=C(C)N2[C@@H](C=C1)[C@@](C#N)(C(N)=O)[C@@H](c1ccccc1)[C@@H]2C(=O)OC
 : -0.8	0.27
CC(C)(C)NC(=O)Cc1ccccc1
 : -0.6	nt
Nc1ccc(C(=O)NCC2CCCO2)cc1 (stereo not given)
 : 2.2	-0.77
CCCCN1C(=O)CCC(C(=O)O)C1c1ccccc1OC (stereo not given)
 : -0.05	nt
Cc1nc2ccc(C(F)(F)F)cc2n1CCc1ccccc1
 : 1.1	-0.17
Nc1nc(N2CCCCC2)ncc1F
 : -0.85	19
O=C(N/N=C/c1cc(Cl)cc(Cl)c1Cl)c1ccc(C(F)(F)F)cc1
 : nt	0.18
C/C(=N\NC(N)=S)c1ccc(Cl)c(Cl)c1
 : nt	-0.93
CC1(C)CC(=O)CC(=Nc2ccccc2N)C1
 : -0.85	nt
Cc1cc(C(F)(F)F)n2nc(C(N)=O)cc2n1
 : -1.4	nt
COc1ccccc1-c1coc2c(CN(C)C3CCCCC3)c(O)ccc2c1=O
 : 1.1	68
N/C(=N\O)c1cccc(C(=O)O)c1
 : -0.15	nt
N#C/C(N)=C(\C#N)NCc1c(F)cccc1Cl
 : 0.7	-0.53
C=CCc1cc(C)ccc1OCCNC(C)C
 : 0.05	nt
CCCC1C(c2ccccc2)NC(c2ccccc2)CC1(O)Cc1ccccc1 (stereo not given)
 : nt	0.02
CCCC1=C(C(=O)OC)C2(C(=O)Nc3ccccc32)C(C(=O)OCC)=C(N)O1 (stereo not given)
 : nt	-0.17
COc1ccccc1N1CCN(C(=O)CCCC(=O)O)CC1
 : -0.2	0.14
CC1CN(C(=O)CCC(=O)N2CCN(c3ccccn3)CC2)c2ccccc2O1 (stereo not given)
 : 0.35	9.4
Cc1ccc(S(=O)(=O)NCCSc2nnc3nc(C)cc(C)n23)cc1
 : -0.25	nt
O=C(CN1C(=O)S/C(=C\C=C\c2ccccc2)C1=O)Nc1cccc(O)c1
 : -0.9	-0.51
CCN(Cc1ccccc1)C(=O)c1c[nH]c2ccc(S(=O)(=O)N(C)c3ccc(Cl)cc3)cc2c1=O
 : nt	1.6
CN1CCC(N(C)C2CCN(Cc3ccccc3)CC2)CC1
 : -1	-0.04

Next structures:
Each structure is followed by: AID504770	CapD inh
O=C(CSc1nccc(-c2cc(-c3ccccc3)no2)n1)Nc1ccc(Cl)cc1
 : 1.5	-0.61
O=S(=O)(c1sc(Br)cc1Br)N1CCCC1
 : -0.65	0.085
O=C(Nc1ccccc1)c1sccc1SCc1c(Cl)cccc1Cl
 : nt	-0.47
NC(=O)COC(=O)c1ccc(F)cc1Cl
 : -1.2	0.14
O=C1CC(c2ccccc2)NC(=S)N1 (stereo not given)
 : -0.95	nt
COC(=O)CCCC(=O)N1CC2CC(C1)c1cccc(=O)n1C2 (stereo not given)
 : nt	-0.73
CCNC(=S)N/N=C/c1c(F)cccc1F
 : 1.4	nt
Cc1ccc(C(=O)OCC(=O)N2CCC(Cc3ccccc3)CC2)cc1N
 : 0.65	2.4
CN=C(NC1CCCCC1)SCc1ccccc1
 : nt	-0.42
Clc1ccc(CO/N=C(\Cn2ccnc2)c2ccc(Cl)cc2Cl)c(Cl)c1
 : 0.4	nt
CCOC(=O)c1sc(-c2ccc(C)cc2)c(C#N)c1C
 : -0.35	-0.51
O=C(Nc1nc(-c2ccccc2)cs1)C1=COCCO1
 : 1.4	-0.26
CC(=O)N(CN1C(=O)c2ccccc2C1=O)c1ccccc1C
 : 0.2	0.06
O=C1C2CC=CCC2C(=O)N1Cc1ccccc1 (stereo not given)
 : -0.1	-0.06
CN1c2ccsc2C(=O)/C(=C/Nc2cccnc2)S1(=O)=O
 : 0.55	1.3
N#Cc1c(-c2ccc(Cl)cc2)cc[nH]c1=O
 : -0.95	7
Cc1ccccc1C(=O)Nc1ccc(S(=O)(=O)N2CCCCC2c2cccnc2)cc1 (stereo not given)
 : nt	0.25
O=C(CSc1nc2cc(C(=O)NCC3CCCO3)ccc2c(=O)n1CC1CCCO1)NC1CCCCC1 (stereo not given)
 : nt	5.3
